# GIRK2 act – GIRK2 channel activation. P48051. HEK293-GIRK2 thallium flux, Thallos fluorescence. calls only for hits at 25 µM. 63,000 tested, 0.05% active. AID 1259325;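 active = among the strongest 0.2% of first-round signals and kept after retests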;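 also: first round at about 10 µM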
# Target sequence (P48051 whole entry, looked up): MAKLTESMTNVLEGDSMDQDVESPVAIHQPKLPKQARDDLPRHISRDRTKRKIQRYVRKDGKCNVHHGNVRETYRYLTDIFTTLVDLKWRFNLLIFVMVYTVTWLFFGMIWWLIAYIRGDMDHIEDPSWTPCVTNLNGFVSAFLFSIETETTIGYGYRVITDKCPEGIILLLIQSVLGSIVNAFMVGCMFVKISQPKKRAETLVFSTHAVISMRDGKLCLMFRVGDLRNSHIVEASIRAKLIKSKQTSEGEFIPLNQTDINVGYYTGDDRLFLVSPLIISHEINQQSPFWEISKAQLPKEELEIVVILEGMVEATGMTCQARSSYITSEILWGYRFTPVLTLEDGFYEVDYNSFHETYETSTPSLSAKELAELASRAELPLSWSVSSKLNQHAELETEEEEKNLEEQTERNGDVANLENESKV
# Calls only; i = inactive. The list is partial. The share of hits here may be higher or lower than overall.
SMILES,GIRK2 act
Cn1c(C2CCC(CNC(=O)c3ccc(S(N)(=O)=O)cc3)CC2)nc2ccccc21 (stereo not given),i
O=C(c1cc2ccccc2[nH]1)N1CC(c2nc(-c3ccccc3)no2)C1,i
CCOc1cc(C(=O)Nc2ccc3c(c2)CCCN3C(=O)C(C)C)cc(OCC)c1OCC,i
Cc1onc(-c2ccccc2Cl)c1C(=O)N1CCC(c2nnc(-c3ccco3)o2)CC1,i
COc1cccc(Oc2nccn3c(=O)n(CC(=O)Nc4cc(F)ccc4F)nc23)c1,i
COc1ccc2nc(C(O)c3ccccc3)[nH]c2c1 (stereo not given),i
COc1cccc2cc(C(=O)NCCC(O)c3ccccc3)oc12 (stereo not given),i
COc1cccc2cc(C(=O)N3CCN(c4ccc(F)cc4)CC3)oc12,i
COC(=O)[C@]1(C)CCC[C@@]2(C)[C@@H]3CC[C@@H]4C[C@@]3(CC[C@@H]21)C[C@H]4C(=O)O,i
O=C(Cn1ccn2nc(-c3ccc(Cl)cc3)cc2c1=O)NCc1ccc2c(c1)OCO2,i
COC1CCN(C(=O)Cc2ccc(S(=O)(=O)C(C)C)cc2)CC1,i
CCOc1ccccc1NC(=O)Cn1nc(C2CCN(S(C)(=O)=O)CC2)n(C)c1=O,i
CCCN1CCCc2cc(CCNC(=O)C(=O)NCC)ccc21,i
O=C(NCCC1=CCCCC1)c1ccc(Oc2nccnc2N2CCSCC2)cc1,i
O=C(c1cccs1)N1CCC(Cn2cccn2)CC1,i
O=C(Nc1nc(CN2CCc3ccccc3C2)cs1)c1c(F)cccc1Cl,i
COc1ccc(CNC(=O)C(=O)NCC2CCN(Cc3ccccc3)CC2)cc1,i
COc1cc(OC)c(NC(=O)NCCNc2cc(Nc3ccccn3)ncn2)cc1Cl,i
O=C(NCc1ccc(C(=O)c2cccs2)s1)c1ccc(Cl)c(Cl)c1,i
COc1cc(C(=O)Nc2cccc(-n3c(C)nc4ccccc4c3=O)c2)cc(OC)c1OC,i
CCCc1nnsc1C(=O)NC1CCN(c2nccs2)CC1,i
O=C(c1ccco1)N1CCN(Cc2nnnn2-c2ccc(Cl)cc2)CC1,i
O=C(C1CCC1)N1C2CCC1COC2,i
O=C(NCCO)C1=Cc2ccccc2OC=C1,i
Cc1ccc(NC(=O)Cn2cccc(S(=O)(=O)N3CCC(C)CC3)c2=O)c(C)c1,i
COC(=O)c1ccc(Oc2c(C)oc3c4c(ccc3c2=O)OCN(CC2CCCO2)C4)cc1 (stereo not given),i
C=CCn1c(=O)c2c(nc3n(-c4cc(C)ccc4OC)c(-c4ccccc4)cn23)n(C)c1=O,i
Cc1ccc(NC(=O)C2CSCCC(=O)N2)cc1Cl (stereo not given),i
COc1ccc(C)c2sc(N(CCN(C)C)C(=O)c3ccn(C)n3)nc12,i
O=C(CCc1cccc(Oc2ccc(F)cc2)c1)NCc1ccco1,i
Cn1nc(-c2ccc(F)cc2)cc1C(=O)N1CCC2(CC1)OCCCO2,i
COc1cccc(C2c3c(oc4cc(OC)ccc4c3=O)C(=O)N2CCN(C)C)c1 (stereo not given),i
Cc1cc(C(F)(F)F)nc(CCNC(=O)C2COc3ccccc3O2)n1 (stereo not given),i
COc1cccc(-n2c(C)cn3c4c(=O)n(Cc5ccc(F)cc5)c(=O)n(C)c4nc23)c1,i
COc1ccc(S(=O)(=O)N2CCc3cc(S(=O)(=O)NC4CCCC4)ccc32)cc1,i
COc1ccc(CCNC(=O)c2cccc(NS(=O)(=O)c3cccc(Cl)c3)c2)cc1OC,i
O=c1c2nnn(Cc3ccccc3)c2ncn1Cc1nc(-c2cccs2)no1,i
Cc1cc(C(=O)N2CCC(COCc3ccccc3)CC2)no1,i
O=C(COc1ccc(Cl)cc1)Nc1ccc(S(=O)(=O)N2CCN(c3cnccn3)CC2)cc1,i
CCCn1c(=O)c2c(nc3n2CCCN3CCc2ccccc2)n(C)c1=O,i
Cc1ccc2c(c1)CCCN2C(=O)CCCSc1ccc(NC(=O)c2ccco2)nn1,i
CCOC(=O)N1CCN(C(=O)CN2CC(c3nc(C4CC4)no3)C2)CC1,i
C=C(C)Cn1c(=O)c2c(nc3n(-c4ccccc4OC)c(-c4ccccc4)cn23)n(C)c1=O,i
CC12CCC(C(=O)NCc3ccco3)(c3nc4ccccc4nc31)C2(C)C (stereo not given),i
Cc1cc(C)cc(-n2c(C)cn3c4c(=O)n(CCCO)c(=O)n(C)c4nc23)c1,i
O=C(c1c(F)cccc1F)N1CCC(Oc2ncccc2Br)CC1,i
CC(=O)Nc1ccc(SCCCC(=O)N2CCN(Cc3ccccc3)CC2)nn1,i
Cc1noc(C)c1CCC(=O)N1CC(c2nc(-c3cccc(C(F)(F)F)c3)no2)C1,i
COc1ncccc1C(=O)N1CCN(C(=O)C2CC2c2ccc(F)cc2)CC1 (stereo not given),i
Cc1[nH]cnc1CN1CCc2c(c3ccccc3n2C)C1=O,i
COC(=O)c1sccc1S(=O)(=O)N1CCN(S(=O)(=O)C2CC2)CC1,i
CS(=O)(=O)N1CCC(C(=O)N(Cc2ccsc2)Cc2ccco2)CC1,i
COc1cccc(NC(=O)C(=O)NCCC(c2ccccc2)c2ccccc2)c1,i
CC(C)(C)OC(=O)N1CCC(NC(=O)CCc2nnc3ccc(-c4ccccc4)nn23)CC1,i
O=C(CSc1nc2c(sc(=S)n2-c2ccccc2)c(=O)[nH]1)NC1CCCCC1,i
CC(C)NC(=O)NCC#CCOc1cccc(C(F)(F)F)c1,i
Cc1noc(C)c1Cn1cc(-c2nc(-c3ccsc3)no2)ccc1=O,i
O=S(=O)(c1ccc(OC(F)(F)F)cc1)N1CCC(CSc2ccccn2)CC1,i
Cc1cc(C(=O)Nc2nc(C(=O)N3CCN(S(C)(=O)=O)CC3)co2)no1,i
CSc1ccc(/C=C2\C=C(CC(=O)N[C@@H](C)c3ccccc3)c3cc(F)ccc32)cc1,i

# Part of the list above, set out differently:
> Cc1cc(C)cc(-n2c(C)cn3c4c(=O)n(CCCO)c(=O)n(C)c4nc23)c1
  GIRK2 act: i

> O=C(c1c(F)cccc1F)N1CCC(Oc2ncccc2Br)CC1
  GIRK2 act: i

> CC(=O)Nc1ccc(SCCCC(=O)N2CCN(Cc3ccccc3)CC2)nn1
  GIRK2 act: i

> Cc1noc(C)c1CCC(=O)N1CC(c2nc(-c3cccc(C(F)(F)F)c3)no2)C1
  GIRK2 act: i

# Remaining list, next part
SMILES,GIRK2 act
O=C(Cn1nc2c(Oc3ccccc3)nccn2c1=O)Nc1ccc2c(c1)OCCO2,i
CS(=O)(=O)Nc1cccc(-c2ccc3c(NC(=O)C4CC4)n[nH]c3c2)c1,i
CC(=O)Nc1c(-c2ccccn2)nsc1C(=O)NCc1ccc(Br)cc1,i
COCCN(Cc1ccoc1)S(=O)(=O)c1cc(C)c(C)cc1OC,i
CCOc1cccc(NC(=O)CSc2nc3c([nH]2)c(=O)n(C)c(=O)n3C)c1,i
CCn1cc(S(=O)(=O)c2cc(C)ccc2C)c(=O)c2cc(F)c(N3CCCC3)cc21,i
Cc1noc(C)c1CCC(=O)NCc1nc2ccccc2[nH]1,i
COc1ccc(CNC(=O)N2CCC(Oc3ccccn3)CC2)cc1,i
O=C(NCc1ccc(C(O)c2cccs2)s1)c1cc2ccccc2o1 (stereo not given),i
CC(C)NC(=O)CCCCn1c(=O)c2ccccc2n(CC(=O)NC2CCCCC2)c1=O,i
CCc1nccn1CC1CCN(C(=O)c2ccco2)CC1,i
O=c1[nH]c2nc(NCc3ccc4c(c3)OCO4)ncc2c(=O)n1Cc1ccccc1F,i
CC(C)NC(=O)N1CC(c2nc(-c3ccccn3)no2)C1,i
COc1ccc(S(=O)(=O)N2CCSC2c2ccc(Br)cc2)cc1 (stereo not given),i
O=C(c1ccc2nsnc2c1)N1CCCC(c2nnc(-c3ccccc3F)s2)C1 (stereo not given),i
COc1ccc(-c2c(C)c3cc(Br)ccc3oc2=O)cc1OC,i
COc1ccc2[nH]c3c(SCC(=O)N4CCN(c5ccccc5)CC4)ncnc3c2c1,i
CCc1ccc(NC(=O)CSc2cc(-n3nc(C)cc3C)ncn2)cc1,i
COC(=O)c1ccc2c(=O)n(Cc3ccccc3)c(N3CCN(c4ccc(C(C)=O)cc4)CC3)nc2c1,i
CCc1nc2c(c(=O)c3ccccc3n2C)c(=O)n1CCc1ccccc1,i
O=C(c1cn(-c2cccc(F)c2)nn1)N1CCN(Cc2ccccc2)CC1,i
CN(c1ccccc1)S(=O)(=O)c1ccc(-c2ccc(S(=O)(=O)N(C)c3ccccc3)cc2)cc1,i
CC(C)(C)C(=O)Nc1nc2cc3c(cc2s1)OCCO3,i
Cc1cc(C)n(CC(=O)Nc2ccc3c(c2)OCCO3)c(=O)c1S(=O)(=O)c1ccccc1,i
COc1ccc(-c2ccc(C#N)c(SCC(N)=O)n2)cc1,i
CC(=O)NCc1ccc(-c2nccs2)cc1,i
COc1ccc(Cl)cc1NC(=O)C1OC2OC(C)(C)OC2C2OC(C)(C)OC12 (stereo not given),i
COc1cccc(C(=O)NCCn2ncccc2=O)c1,i
O=C(NCC(O)C1CCCCC1)c1cnc2ccccc2n1 (stereo not given),i
Nc1c(C(=O)NCc2cccs2)c2nc3ccccc3nc2n1N,i
COCCn1cnc2c(-c3ccccc3)cn(CC(=O)Nc3ccc(C)cc3)c2c1=O,i
Cn1ccnc1SCC1CCN(C(=O)COc2ccc(Cl)cc2Cl)CC1,i
O=C(Nc1ccc(S(=O)(=O)Nc2ncccn2)cc1)c1cc2n(n1)CCCO2,i
COCCN1COc2ccc3c(=O)c(Oc4ccc(C(=O)OC)cc4)coc3c2C1,i
COc1ccc(C(=O)COc2ccc3c(c2)O/C(=C\c2ccc(OC)c(OC)c2OC)C3=O)cc1,i
Cc1noc(-c2ccc(NC(=O)Cc3sc(C)nc3C)cc2)n1,i
O=C(CCc1csc(NC(=O)c2cccs2)n1)NCc1ccc2c(c1)OCO2,i
CN(CC(=O)Nc1cccc(NS(C)(=O)=O)c1)c1nc2ccccc2s1,i
COc1ccc(-c2coc3cc(OC(C)=O)ccc3c2=O)cc1,i
O=C(Nc1nnc(-c2ccsc2)o1)c1cc(Cl)ccc1Cl,i

# Two of these compounds in a different format:
SMILES	GIRK2 act
O=C(NCC(O)C1CCCCC1)c1cnc2ccccc2n1 (stereo not given)	i
CN(c1ccccc1)S(=O)(=O)c1ccc(-c2ccc(S(=O)(=O)N(C)c3ccccc3)cc2)cc1	i

# Quoted at random: 3 compounds from above
SMILES,GIRK2 act
COc1ccc(Cl)cc1NC(=O)C1OC2OC(C)(C)OC2C2OC(C)(C)OC12 (stereo not given),i
CN(CC(=O)Nc1cccc(NS(C)(=O)=O)c1)c1nc2ccccc2s1,i
COc1cccc(C(=O)NCCn2ncccc2=O)c1,i

# The list goes on:
SMILES,GIRK2 act
COc1ccccc1NC(=O)C1=C(C)NC(=O)NC1c1cc(OC)c(OC)cc1Br (stereo not given),i
CC(=O)Nc1ccc(S(=O)(=O)N2CCN(c3c(C)cccc3C)CC2)cc1,i
CCOc1ccc(NC(=O)CN2C(=O)c3ccccc3OC(C)C2=O)cc1 (stereo not given),i
COc1ccc(S(=O)(=O)NCC2CCN(C(=O)c3ccncc3)CC2)cc1Cl,i
Cc1cc(C)n(-c2ccc(C(=O)NC(C)CCc3ccccc3)cn2)n1 (stereo not given),i
COCCN1CCC(CNC(=O)c2ccccc2Cl)CC1,i
OCCSc1ncnc2c1oc1ccccc12,i
CCOc1ccc(-c2noc(C3CCCN(S(=O)(=O)c4cccs4)C3)n2)cc1 (stereo not given),i
Cc1nn(C(C)CC(=O)N2CCN(S(=O)(=O)c3ccccc3)CC2)c(C)c1Cl (stereo not given),i
COC(=O)C1(NC(=O)NC23CC4CC(CC(C4)C2)C3)CCCCC1,i
O=C(Nc1cccc2cccnc12)c1nnn(-c2ccc(C(F)(F)F)cc2)n1,i
O=C(CSc1ncccc1C(=O)O)Nc1cccc(C(F)(F)F)c1,i
O=C(CSc1nnc2c3c4c(sc3ncn12)CCCC4)Nc1ccc(F)c(Cl)c1,i
CCOC(=O)c1ccc(NC(=O)c2coc(NC(=O)C3CC3)n2)cc1,i
COc1ccc(NC(=O)CSc2ncc(S(=O)(=O)c3ccc(C)cc3C)c(=O)[nH]2)cc1Cl,i
Cc1cccc(N2CCN(C(=O)c3snc4c(=O)n(C(C)C)c(=O)[nH]c34)CC2)c1C,i
O=C(CSc1nccn1-c1ccc(C(=O)NCc2ccccc2F)cc1)Nc1ccccc1F,i
O=C1SC(Nc2ccccc2)C(=O)N1CCN1C(=O)c2ccccc2C1=O (stereo not given),i
COC(=O)c1ccc2c(=O)n(Cc3ccc(F)cc3)c(N3CCN(Cc4ccccc4)CC3)nc2c1,i
CCOc1ccc(C(=O)N2CCN(c3cc(Nc4ccccn4)nc(C)n3)CC2)cc1,i
CCOc1ccc(NC(=O)C(=O)NCCC(O)c2cccs2)cc1 (stereo not given),i
CN(C)CC1CSCCCN1C(=O)c1ccc2ncsc2c1 (stereo not given),i
O=C(NCC(Cc1cccc(F)c1)N1CCCC1=O)c1ccc(=O)[nH]c1 (stereo not given),i
COc1cc(-c2noc(CCn3nc(-c4ccccc4)ccc3=O)n2)ccc1OC(C)C,i
COc1ccc(NC(=O)Nc2ccc(CN3CCN(c4ccccn4)CC3)cc2)cc1,i
O=C(CCCn1cnc(-c2ccc(F)cc2)cc1=O)Nc1nc2c(s1)CCCC2,i
O=C(Cn1nc2c(c1NC(=O)C(=O)c1c[nH]c3ccccc13)CSC2)NCc1ccco1,i
O=C(c1ccc(OCc2ccc3ccccc3n2)cc1)N1CCN(c2ccccn2)CC1,i
COc1ccccc1OCC#CCNC(=O)Nc1cccc(Cl)c1,i
COc1c(C)cc(S(=O)(=O)NCCn2nc(-c3ccc(Cl)cc3)ccc2=O)c(C)c1C,i

# Screening data (PubChem)
